# Screening results from PubChem.
# Mtb growth: Confirmatory growth inhibition assay against Mycobacterium tuberculosis H37Rv, potency (AID 1949); inhibition, % at 10 µg/mL, or IC50 in µg/mL where a hit was titrated; hit rate 1.6% among 100,000; most inactive calls were filed without a number and no value below 0 was filed;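 active = confirmed in a dose series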;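 also: bacteria grown 7 days with compound before Alamar blue readout; 0% = untreated bacteria and 100% = reference antibiotic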
# * marks the source's active call; other numbers are inactive results; i = inactive. These rows are one share of the data (hit frequency here may not be typical).
# The first ten entries as a preview:
SMILES,Mtb growth
S=C(NCC1CCCO1)NC1CC1 (stereo not drawn),i
O=C(NCC1CCCO1)c1ccc(COCC(F)(F)C(F)F)cc1 (stereo not drawn),i
COc1cc(Cl)c(C)cc1NC(=O)C(C)(C)C,8%
COc1ccc(-c2nc(N)n(C(=O)c3cccs3)n2)cc1,1%
Fc1ccc(CSc2nnc(-c3ccncc3)o2)cc1,i
O=C(Nc1ccncc1)c1ccc(CNS(=O)(=O)c2cccc(C(F)(F)F)c2)cc1,i
COc1ccc(OCC(=O)Nc2ccc3c(c2)nc2n3CCN(Cc3ccccc3)C2)cc1,i
Cc1cc(C(=O)N2CCc3ccccc32)cs1,i
Cc1ccc(S(=O)(=O)NC(C)C(=O)Nc2ccc(C(F)(F)F)cc2)cc1 (stereo not drawn),i
NS(=O)(=O)c1ccc(NC(=S)N2CCN(Cc3ccc4c(c3)OCO4)CC2)cc1,i

# All compounds of this part, from the first entry:
SMILES,Mtb growth
S=C(NCC1CCCO1)NC1CC1 (stereo not drawn),i
O=C(NCC1CCCO1)c1ccc(COCC(F)(F)C(F)F)cc1 (stereo not drawn),i
COc1cc(Cl)c(C)cc1NC(=O)C(C)(C)C,8%
COc1ccc(-c2nc(N)n(C(=O)c3cccs3)n2)cc1,1%
Fc1ccc(CSc2nnc(-c3ccncc3)o2)cc1,i
O=C(Nc1ccncc1)c1ccc(CNS(=O)(=O)c2cccc(C(F)(F)F)c2)cc1,i
COc1ccc(OCC(=O)Nc2ccc3c(c2)nc2n3CCN(Cc3ccccc3)C2)cc1,i
Cc1cc(C(=O)N2CCc3ccccc32)cs1,i
Cc1ccc(S(=O)(=O)NC(C)C(=O)Nc2ccc(C(F)(F)F)cc2)cc1 (stereo not drawn),i
NS(=O)(=O)c1ccc(NC(=S)N2CCN(Cc3ccc4c(c3)OCO4)CC2)cc1,i
O=C(Nc1sc2c(c1C(=O)NCc1ccco1)CCCC2)c1ccc2c(c1)OCO2,i
O=C(CSc1n[nH]c(-c2ccccc2Cl)n1)c1ccc(O)c(O)c1,8%
COC(=O)CCCCC(=O)c1[nH]c(=O)[nH]c1C,i
Cc1ccc(C)c(C(=O)CSc2nnnn2-c2ccccc2)c1,i
CCn1c(CNC(=O)c2ccccc2F)nnc1SCC(=O)Nc1cc(Cl)ccc1Cl,0%
Cc1nn(-c2ccccc2)c2c1C(=O)C(=O)C(C)(C)C2,i
O=C1CC(CSc2nnnn2-c2ccccc2)=NN1,i
Cc1ccc(OCc2nnc(NC(=O)Cc3cccs3)s2)cc1,i
Nc1cc(=O)[nH]c(SCC(=O)N2CCc3ccccc32)n1,i
COc1cc(S(=O)(=O)n2nnc3ccccc32)c(OC)cc1Cl,11%
Cc1cc(Cl)ccc1OCC(=O)Nc1ccc(S(=O)(=O)NC(C)(C)C)cc1,i
COc1ccc(N2CCN(C(=O)NC3CCCCC3)CC2)cc1,i
O=[N+]([O-])c1ccc2nonc2c1Nc1ccc(F)cc1,i
Cc1cc(C(C)(C)C)oc1C(=O)Nc1ccc(CC(=O)O)cc1,10%
COc1ccc(N(CC(=O)Nc2c(C)cc(C)cc2C)S(C)(=O)=O)c(OC)c1,i

# Remaining list, next part.
SMILES,Mtb growth
Cc1ccc(C)c(OCC(=O)Nc2sc3c(c2C(N)=O)CCC(C)C3)c1C (stereo not drawn),i
CC(Oc1ccc(Cl)cc1Cl)C(=O)Nc1nnc(CCc2ccccc2)s1 (stereo not drawn),i
CC(NS(=O)(=O)c1ccccc1)c1ccccc1 (stereo not drawn),i
CCc1cc(=O)oc2c(C)c(OC(C(=O)O)c3ccccc3)ccc12 (stereo not drawn),i
O=C(Nc1ccc(Oc2cccnc2)cc1)c1ccc(-c2ccccc2)cc1,4%
O=[N+]([O-])c1ccc(NC(=S)Nc2ccc(Br)cn2)cc1,i
N#Cc1ccc(CSCC(=O)O)cc1,i
COc1ccc(OC)c(NC(=O)CSc2nnc(Cc3cccc4ccccc34)n2C)c1,i
O=C(Nc1cccc2ccccc12)c1ccc(Cl)cc1[N+](=O)[O-],18%
Cn1c(SCc2ccc(Cl)cc2)nnc1-c1ccco1,i
COc1ccc(Br)cc1CNCC1CCCO1 (stereo not drawn),i
CCOc1ccc(C(=S)N2CCN(C)CC2)cc1,i
O=C(NCc1cccnc1)c1ccc(Br)s1,1%
CSc1nc(C)cc(Oc2ccc(=O)n(C)n2)n1,i
O=C(c1ccncc1)N1CCN(c2cccc(Cl)c2)CC1,i
CCOc1ccccc1-c1cc(C(=O)OC)c2ccccc2n1,i
Nc1cc(=O)[nH]c2nnc(SCCc3ccccc3)n12,i
Cc1cccc2c1OC(=O)CC2c1ccccc1 (stereo not drawn),2%
COc1ccc(Cl)cc1NC(=O)c1cccc(NC(=O)c2ccccc2)c1,4%
COC(=O)c1sc2nc(-c3ccccc3)nc(N)c2c1C,i
COc1cc(OC)cc(C(=O)N2CCc3ccccc3C2)c1,i
Cc1nn(-c2ccccc2)c2sc(C(=O)NC(=S)Nc3ccc(F)cc3)cc12,i
CCOC(=O)C1=C(C)NC(=O)NC1c1cc(OC)c(OC)cc1Cl (stereo not drawn),i
COCC(C)NC(=O)c1c(-c2ccccc2)noc1C (stereo not drawn),i
CCN(CC)C(=O)c1ccc(NC(=O)c2ccc(Cl)cc2Cl)cc1,i

# Next section.
SMILES,Mtb growth
CCOc1ccc(C(=O)Nc2ccc(N3CCN(Cc4ccccc4)CC3)cc2)cc1,i
Cc1ccc2cccc(OCCCOc3ccccc3I)c2n1,0%
COc1cc2c(cc1NC(=S)NCc1ccco1)oc1ccccc12,i
Cc1c(C(=O)O)cccc1-c1ccc(C=O)o1,i
Cc1ccc(S(=O)(=O)N2CCN(CCOc3ccc(Cl)cc3)CC2)cc1,i
Cc1cc(Cl)ccc1OCCCC(=O)Nc1ccc2c(c1)OCO2,i
Cc1nn(C(=O)c2ccco2)c(C)c1Br,3%
O=C(CCSc1ccc(Cl)cc1)Nc1ccc(F)cc1F,3%
CCc1ccc(OCC(=O)Nc2ccc(S(=O)(=O)N3CCCCCC3)cc2)cc1,i
COc1ccc(CNC(=S)Nc2ccc(C)cc2C)cc1,i
CC1CCc2c(sc(NC(=O)C3CC4CCC3C4)c2C(N)=O)C1 (stereo not drawn),1%
O=C(COc1ccc2c(c1)oc(=O)c1ccccc12)Nc1ccc(Cl)cc1,i
COc1ccc(OC)c(N(CC(=O)Nc2cc([N+](=O)[O-])ccc2OC)S(=O)(=O)c2ccccc2)c1,i
CC1CC(Nc2ccccc2)c2ccccc2N1C(=O)c1ccc2c(c1)OCO2 (stereo not drawn),i
O=C(Nc1cccnc1)c1cccc(COc2ccccc2Cl)c1,21%
CCOC(=O)c1ccc(NC(=O)CSc2nc3sc(C(=O)O)c(C)c3c(=O)[nH]2)cc1,i
O=c1[nH]c2ccccc2nc1/C=C/c1ccccc1,4%
CN1CCN(C(=O)CN(Cc2ccccc2Cl)S(=O)(=O)c2ccc(Br)cc2)CC1,5%
CC(=O)Nc1ncc2c(n1)CC(c1ccccc1Cl)CC2=O (stereo not drawn),5%
O=S(=O)(Cc1ccccc1)Nc1ccc(Br)cc1F,i
Cc1sc(NC(=O)Cc2ccccc2)c(C(=O)OC(C)C)c1C,7%
Cc1cc2nnc(SCC(=O)Nc3ccc4c(c3)OCO4)n2c2ccccc12,i
COc1ccc(-c2csc(Nc3ccc(NC(C)=O)cc3)n2)cc1OC,i
O=C(O)c1cccc(NC(=S)NC(=O)c2ccc(Br)cc2)c1,2%
S=C(c1ccc2c(c1)OCO2)N1CCCCCC1,i

# The list continues:
SMILES,Mtb growth
Cc1cc(=O)oc2cc(OCC(=O)c3ccccc3)cc(OCC(=O)c3ccccc3)c12,i
O=C(CSc1ncn[nH]1)N1CCOCC1,i
COc1ccc(OC)c(NC(=O)COc2ccc(Cl)cc2Br)c1,i
Cc1ccc(Cl)cc1N1CCN(C(=O)CN(c2ccc([N+](=O)[O-])cc2)S(=O)(=O)c2ccccc2)CC1,i
COc1ccc(NC(=O)c2ccccc2NC(=O)c2ccc(OC(C)=O)cc2)cc1,i
Cc1ccc2cc(CN(Cc3ccco3)C(=O)C3CCCO3)c(=O)[nH]c2c1 (stereo not drawn),i
Nc1nc(-c2ccccc2)cc(-n2nc(C(F)(F)F)cc2C(F)(F)F)n1,1%
COC(=O)c1ccc(Cn2cnc3sc(C(=O)Nc4ccccc4)c(C)c3c2=O)cc1,42%
CCOc1ccc(OCC(=O)Nc2cc([N+](=O)[O-])ccc2OC)cc1,i
O=C(c1cccc(F)c1)N1CCN(C(=O)c2nn3cccnc3c2Cl)CC1,i
CCc1ccc(N(CC(=O)NCc2ccco2)S(C)(=O)=O)cc1,i
COc1ccc(C(=O)N(C)CCc2ccccn2)cc1OC,i
CCOc1ccc(C2C(C(=O)Nc3ccccc3OC)=C(C)NC3=C2C(=O)CC(c2ccc(OC)c(OC)c2)C3)cc1OC (stereo not drawn),i
Nc1ccc(N2CCN(c3c(F)c(F)c(F)c(F)c3F)CC2)c(Cl)c1,16%
Cc1ccccc1-c1nnc(SCC(=O)Nc2c(C)cc(Br)cc2C)n1C,i
CCOCCC(=O)Nc1ccc2c(c1)OCO2,i
COc1ccc(NC(=O)c2ccccc2NC(=O)c2ccccc2OC)cc1,i
Cc1cc(C)c(S(=O)(=O)N2CCC(C(=O)Nc3ccc4c(c3)OCCO4)CC2)c(C)c1,i
COc1ccc(NC(=S)NC(NC(=O)Cc2ccccc2)C(Cl)(Cl)Cl)cc1OC (stereo not drawn),i
CCOc1ccc(NS(=O)(=O)N2CCOCC2)cc1,i
Cc1ccc(Cl)cc1NC(=O)CSc1nc2c(c(C(F)(F)F)c1C#N)CCCC2,i
CCOc1cc(C2NC(=S)NC(C)=C2C(=O)OC)cc(I)c1OC (stereo not drawn),i
Cc1ccc(-c2n[nH]c(=O)c3ccccc23)cc1S(=O)(=O)N1CCN(C)CC1,i
CCCCc1ccc(NC(=S)N2CCN(c3ccc(OC)cc3)CC2)cc1,i
CCNC(=O)CC1Nc2ccccc2NC1=O (stereo not drawn),i

# Other structures:
SMILES,Mtb growth
O=C1C2C3CCC(C3)C2C(=O)N1c1nccs1 (stereo not drawn),i
O=C(COc1ccc(F)cc1F)Nc1ccc2c(c1)OCO2,i
N#Cc1ccc(N2CCN(C(=O)c3cccc(F)c3)CC2)c(F)c1,8%
Cc1onc(-c2ccccc2)c1C(=O)Nc1ccc(Br)cn1,6%
COc1cc(C2C(C#N)=C(N)N(c3ccc(Br)cc3F)C3=C2C(=O)CCC3)ccc1O (stereo not drawn),8%
C=CCn1c(CNC(=O)c2ccccc2F)nnc1SCC(=O)Nc1ccc(Br)c(C)c1,i
CN=c1c([N+](=O)[O-])nn(-c2ccccc2)n1O,i
COc1cc(OC)cc(C(=O)Nc2ccc(CC#N)cc2)c1,i
Cc1ccc(-c2nnc(SCC(=O)Nc3ccccc3F)n2C)cc1,i
N#Cc1c(C(F)(F)F)cc(-c2ccccc2)nc1SCC(N)=O,2%
CCOc1ccc(C(=O)Nc2c(C)cccc2CC)cc1Br,0%
COc1ccc(-n2c(C)c(C(C)=O)c3cc(OCC(N)=O)ccc32)cc1,2%
CC(C)(C)C(=O)Oc1ccc(C(=O)Nc2cc(Cl)ccc2Cl)cc1,4%
COc1ccc(C(NC(=O)CCc2ccccc2)c2ccc3cccnc3c2O)cc1OC (stereo not drawn),2%
Cc1ccc(NC(=S)NCc2ccc3c(c2)OCO3)c(C)c1,1%
O=S(=O)(Nc1ccc(S(=O)(=O)N2CCCC2)cc1)c1cc(Cl)ccc1Cl,i
CC12CCC(C(=O)NCCc3ccccc3)(OC1=O)C2(C)C (stereo not drawn),i
O=C(Cc1cccs1)Nc1nc2c(s1)CCCC2,i
CCOc1cc(C(=S)N2CCC(C)CC2)ccc1OCC(=O)N1CCOCC1,1%
CCN(CC)C(=O)CSc1nc(-c2ccc(Br)cc2)cc(C(F)(F)F)c1C#N,1%
CC(C)NC(=O)c1ccccc1NC(=O)CCSc1ccccc1,i
COc1cccc(C(=O)NCc2ccco2)c1OC,i
CSc1ccc(S(=O)(=O)Nc2c(C)cccc2C(C)C)cc1,4%
Cc1csc(SCC(=O)Nc2cc(C)on2)n1,i
CSc1nc(N2CCOCC2)c2c3c(sc2n1)COC(C)(C)C3,i

# 8 records picked at random from the list so far:
SMILES,Mtb growth
Cc1nn(-c2ccccc2)c2sc(C(=O)NC(=S)Nc3ccc(F)cc3)cc12,i
CC(NS(=O)(=O)c1ccccc1)c1ccccc1 (stereo not drawn),i
CC(C)(C)C(=O)Oc1ccc(C(=O)Nc2cc(Cl)ccc2Cl)cc1,4%
CCOc1ccc(C2C(C(=O)Nc3ccccc3OC)=C(C)NC3=C2C(=O)CC(c2ccc(OC)c(OC)c2)C3)cc1OC (stereo not drawn),i
COc1cc(OC)cc(C(=O)Nc2ccc(CC#N)cc2)c1,i
N#Cc1ccc(CSCC(=O)O)cc1,i
CC(C)NC(=O)c1ccccc1NC(=O)CCSc1ccccc1,i
COc1ccc(OCC(=O)Nc2ccc3c(c2)nc2n3CCN(Cc3ccccc3)C2)cc1,i

# (more compounds)
SMILES,Mtb growth
Cc1cc(C)cc(N2C(=O)NC(=O)/C(=C\c3ccc(OCC(=O)O)c(Cl)c3)C2=O)c1,i
OC1(C(F)(F)F)CC(c2ccc(Cl)cc2)=NO1 (stereo not drawn),i
CCCCC(=O)NC(=S)Nc1ccccc1C(N)=O,i
CCC(CC)C(=O)Nc1ccc(O)cc1C(=O)O,i
Cc1ccc(CC(=O)Nc2ncc([N+](=O)[O-])s2)cc1,12%
COc1ccc(OC)c(N(CC(=O)Nc2cccc(SC)c2)S(C)(=O)=O)c1,i
COCc1nnc(NC(=O)CCCc2ccccc2)s1,i
O=S(=O)(c1ccc(Cl)cc1)N1CCCN(S(=O)(=O)c2ccc(Cl)cc2)CC1,0%
CCOC(=O)c1c(NC(=O)C2CC=CCC2C(=O)O)sc2c1CCCCCC2 (stereo not drawn),i
COCCCNCCOCCOc1cc(C)cc(C(C)C)c1,i
CCN1CCN(CCCOc2ccc(C)cc2I)CC1,i
c1ccc(Cn2ccnc2-c2ccco2)cc1,2%
CC(=O)Nc1cccc(NC(=O)Nc2ccc(C(C)=O)cc2)c1,i
S=c1nc(-c2ccc(Br)cc2)n(-c2ccccc2)c2c1CCCC2,i
COc1ccc(NC(=O)COc2ccc(S(=O)(=O)NC3CCCCC3)cc2)cc1Cl,i
